HSD17B inhib: HSD17B dehydrogenase inhibition; recombinant HSD17B10, NADH fluorescence kinetic; many of its hits are not listed in these tables; Potency, µM (doses to about 57.1 µM), for the others: at the top dose activity change, negative = inhibition, hits mostly inhibitors; AID 893; 75,000 tested, 7.6% active; active = well fitted inhibition curve with a large enough effect; inconclusive = small, poorly fitted or top-dose-only effect; inactive = no such curve, though single readings can be large or run the other way;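 note: the protocol describes HADH2 (HSD17B10) and not the HSD17B4 of the title; nearly all actives have a fitted effect of over 70% in size; most hits overshoot -100% by far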
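Activity followed as NADH fluorescence increase (ex 360, em 450 nm) every 30 seconds for 4 min, using final 90 uM beta-hydroxybutyryl CoA and 1 mM NAD+. Recombinant His-tagged enzyme, 20 nM, pH 9.0 Tris buffer, 15 min compound preincubation.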
The depositor's hits bear a star; ? = inconclusive; [ ] = dose if it differs, or a comment. % is set by controls: 0 for no effect and ±100 for the full control effect; potency is the fitted concentration of half-maximal effect. Not all compounds are listed (hit frequency here may not be typical).

SMILES	HSD17B inhib
CC1=C(C(=O)OCc2ccccc2)C(c2ccc(C(C)(C)C)cc2)NC(=O)N1CCCCCC(=O)O (stereo not drawn)	?
O=C(c1ccncc1)N1CCC2(CC1)CCN(c1ccccn1)CC2	31.6µM*
COc1ccc2[nH]c(=O)c(C(c3nnnn3C3CCCCC3)N3CCN(C)CC3)cc2c1 (stereo not drawn)	15.8µM*
CCN(CC)c1ccc(NC(=O)c2cccc(C)c2OC)c(C)c1	?
O=C(NCCSc1ccccc1)c1ccccc1	-3.2%
COc1ccccc1OCC(=O)NC1CCCCCC1	-1.8%
CCCc1cc(=O)[nH]c(SCC(=O)Nc2ccc(OC(F)F)cc2)n1	10.0%
CC(C)=CCC/C(C)=C/CO/N=C1/C[C@@H](O)[C@@H](O)[C@@H]2[C@@H]3C(=O)N(c4cccc(Oc5ccccc5)c4)C(=O)[C@H]3CC[C@@H]12	-4.0%[11.4 µM]
CC(C)n1c(CNC(=O)c2ccccc2)nc2ccccc21	-1.9%
CC(OC(=O)CCc1nc2ccccc2[nH]c1=O)C(=O)c1ccccc1 (stereo not drawn)	9.8%
COc1ccc(OC)c(NC(=O)CCN2CCN(c3ccccc3)CC2)c1	3.9%
O=C(Cn1c(=O)sc2ccccc21)N1CCOCC1	-27.0%
Cc1cccc(N2CCN(C(=O)n3ccnc3)CC2)c1C	-6.1%
CC(C)(C)NC(=O)CN(C(=O)c1ccc(CN2CCOCC2)o1)c1ccc2c(c1)OCCO2	2.5%
C=C(C)CSc1nc(N)c(C#N)c(-c2ccc(C)cc2)c1C#N	10µM*
CN(C)CC[C@@H](c1ccccc1)c1ccccn1	5.4%[25.6 µM]
COC(=O)c1nc(NC(=O)C(C)C)n[nH]1	0.9%
O=C(CNCCO)NC12CC3CC(CC(C3)C1)C2	4.5%
CCN=C1SC(CC(=O)Nc2ccc(N3CCOCC3)cc2)C(=O)N1CC (stereo not drawn)	5.6%
CCOC(=O)c1ccc(-n2c(C)nc3ccccc3c2=O)cc1	7.7%
NC(=O)C1CCN(CC(=O)Nc2ccccn2)CC1	2.3%
O=C1C2C3CCCC3=C3CCCC3C2C(=O)N1c1ccc(F)cc1 (stereo not drawn)	-28.1%
CCOC(=O)c1c(C)nc2c3ccccc3ccn12	-10.7%
COc1ccc(C2=CC(=O)OC3(CCCCC3)O2)cc1	-5.6%
C=CCN1C2CCCC1CC(NC(=O)Nc1cccc(C(C)=O)c1)C2 (stereo not drawn)	4.8%
COc1ccc(C(CNC(=O)c2cccc(N(C)C)c2)N2CCCC2)cc1 (stereo not drawn)	-12.9%
O=C(NC(NCc1ccccn1)(C(F)(F)F)C(F)(F)F)c1ccco1	10.3%
CCCc1c(O)nc(SCC(=O)NCCc2ccc(OC)c(OC)c2)[nH]c1=O	2.9%
O=C(O)c1cccc(CN2CCCCC2)c1	4.8%[11.4 µM]
COc1ccc(CC(=O)N2CCOCC2)cc1OC	6.4%
C(=C\c1ccccc1)/CSc1nnc(-c2cccnc2)n1Cc1ccco1	-20.4%
CCNCCNC(=O)c1c(O)c2ccccc2n(CC)c1=O	-12.3%
O=S(=O)(c1ccc(OCC(O)CN2CCN(c3ccccc3O)CC2)cc1)N1CCOCC1 (stereo not drawn)	2.3%
CCOC(=O)C1CCN(c2c(NCCN3CCN(c4ccccc4)CC3)c(=O)c2=O)CC1	2.7%
CCC(=O)Nc1cccc(NC(=O)CSc2nnc(-c3ccc(NS(C)(=O)=O)cc3)n2C)c1	4.4%
CCCCNC(=O)c1ccc2c(c1)N(CC)C(=O)c1ccccc1S2(=O)=O	0.3%
CCOc1ccc(C(=O)Nc2ccc(Cl)cn2)cc1Cl	-4.4%
COC(=O)[C@@H]1C[C@@]2(O)[C@H](O)[C@H](O)[C@H](O)C[C@H]2N1CC(c1ccccc1)c1ccccc1	-1.7%
CC(=O)Nc1ccc(C(=O)OCCC(C)C)cc1	31.6µM*
COc1ccc(C2(O)CCN(CC(=O)Nc3nccs3)CC2)c(OC)c1	12.1%
COc1cccc(S(=O)(=O)Nc2ccc(C(=O)N3CCN(C(=O)c4ccco4)CC3)cc2)c1	10.6%
O=C(NCCCN1CCCC1=O)Nc1ccc(Cl)cc1	5.5%
O=C(c1oc(=O)c2ccccc2c1-c1ccccc1)N1CCOCC1	-7.5%
N=c1n(Cc2ccccc2)c2ccccc2n1CC(O)c1ccccc1 (stereo not drawn)	13.2%
O=C(NCCc1ccccc1)c1ncn[nH]1	6.9%
O=C(Cn1ccc2ccccc2c1=O)NCCC(=O)N1CCN(C2CCCCC2)CC1	31.6µM*
CC1(C)c2ccccc2N2CC(=O)N(CC(N)=O)C21C (stereo not drawn)	0.1%
COc1ccc(C(=O)NCc2nnc(SCC(=O)N3CCCCC3)o2)cc1OC	1.2%
Oc1ccc(Cl)cc1/C=N/c1nc2ccccc2[nH]1	?
O=C(NCC1CCCO1)c1cc2n(n1)C(C(F)(F)F)CC(c1ccc(F)cc1)N2 (stereo not drawn)	-3.6%
O=C1CC(N2CCC(O)CC2)C(=O)N1c1ccc(Br)cc1 (stereo not drawn)	-1.7%
CS(=O)(=O)Nc1cccc(-c2cncnc2-n2ccnc2)c1	-4.3%
CCN(CCCNC(=O)CC(C(=O)N1CCc2ccccc21)n1ccnc1)c1ccccc1 (stereo not drawn)	-6.0%
CO[C@@]1(NC(=O)Cc2cccs2)C(=O)N2C(C(=O)O)=C(COC(N)=O)CSC21 (stereo partly drawn)	?
CCCCOC(=O)CSc1nc2c(c(=O)[nH]c(=O)n2C)n1C/C=C(\C)Cl	-3.8%
O=C(c1cnn2c(C(F)(F)F)cc(-c3ccc4c(c3)OCO4)nc12)N1CCCCC1	4.6%
O=C(NCc1ccco1)c1ccc(CS(=O)(=O)Cc2ccc(F)cc2)o1	3.0%
COc1cc(NC(=O)c2nccnc2C(=O)O)cc(OC)c1	-3.7%
CC(NS(=O)(=O)c1ccc(Cl)cc1)C(c1cccs1)N1CCN(C)CC1 (stereo not drawn)	5.6%
Cc1ccc(C)c2[nH]c(=O)c(CCNC(=O)CC(C)C)cc12	?

Taken from the entries so far for reference:
SMILES	HSD17B inhib
CC(NS(=O)(=O)c1ccc(Cl)cc1)C(c1cccs1)N1CCN(C)CC1 (stereo not drawn)	5.6%
Cc1ccc(C)c2[nH]c(=O)c(CCNC(=O)CC(C)C)cc12	?

The list goes on:
SMILES	HSD17B inhib
COC(=O)CCN(C)CCC(=O)OC	7.7%
O=c1cc(Nc2ccc3c(c2)OCCO3)[nH]c(=O)n1Cc1ccc(F)cc1	5.0%
COc1ccc(NC(=O)NC(C(F)(F)F)C(F)(F)F)cc1	8.5%
Cc1csc(NC(=O)C2CCCN2C(=O)Oc2ccccc2)n1 (stereo not drawn)	11.3%
O=C(COc1ccccc1)Nc1nc(-c2cccs2)cs1	5.4%
Cc1onc(-c2ccccc2Cl)c1C(=O)Nc1ccc(-c2nnc3n2CCCCC3)cc1	8.1%
Cc1nnc(SCCCn2c(N3CCCCC3)nc3c2c(=O)[nH]c(=O)n3C)s1	3.7%
CCCCS(=O)(=O)Nc1ccc2ncn(C)c(=O)c2c1	25.1µM*
O=C(NCCCCNC(=O)C1CCCC1)C1CCCC1	-7.6%
O=C1C(C=NCc2ccccn2)=C(O)c2ccccc21	-11.2%
COc1cc(C)c(C(N)=O)c(OC)n1	14.6%
C=CCSC1=C(C#N)C(c2ccccc2C)CC(=O)N1 (stereo not drawn)	-19.9%
Nc1n[nH]c(-c2ccccc2)c1-c1ccccc1	-9.1%
CCN(CC)CCNC(=O)CCc1nn(C)c(=O)c2ccccc12	-3.3%
CCN(CC)S(=O)(=O)c1ccc(Cl)c(C(=O)Oc2cccnc2)c1	-7.4%
Cc1ccc(C)c(N(CC(=O)NC2CCCCC2)C(=O)CCC(=O)Nc2ccccn2)c1	-12.3%
Cc1cccc(S(=O)(=O)c2c(N)n(/N=C/c3cccnc3)c3nc4ccccc4nc23)c1	10.9%
CC(c1ccccc1)C1C(C#N)=C(N)OC2=C1C(=O)CCC2 (stereo not drawn)	-2.4%
CC(C)=CCC/C(C)=C/CO/N=C1/[C@H]2O[C@@H]2[C@@H](O)[C@H]2[C@H]1CCn1c(=O)n(-c3ccccc3)c(=O)n12	2.8%[11.4 µM]
COC(=O)c1ccc(S(=O)(=O)N2CCCCCC2)cc1	-16.9%
COc1cc(C2C(C#N)=C(N)Oc3cc(C)oc(=O)c32)cc2c1OCO2 (stereo not drawn)	20µM*
Cc1nccc2[nH]c(=O)c(C(=O)NC3CCCCC3C)cc12 (stereo not drawn)	-9.2%
COc1ccccc1NC(=O)c1oc2ccccc2c1NC(=O)c1cc(OC)c(OC)c(OC)c1	4.0%
O=C1CC(c2cccc(Cl)c2)Cc2nc(N3CCN(c4ccccc4)CC3)ncc21 (stereo not drawn)	1.1%
Cc1nc2cc(C(=O)OCC(=O)N(CC(C)C)C3CCS(=O)(=O)C3)ccc2n1-c1ccccc1 (stereo not drawn)	-2.2%
O=C(Nc1ccccc1)c1ccc(Cc2nc3ccccc3[nH]2)cc1	0.6%
O=C(NC12CC3CC(CC(C3)C1)C2)c1cccnc1	8.4%
COCCCN1C(=O)C(=O)/C(=C(/O)c2ccc(OC(C)C)c(C)c2)C1c1ccncc1 (stereo not drawn)	-8.6%
COCCNC(=O)C1c2cc(OC)c(OC)cc2C(=O)N(C)C1c1cccnc1 (stereo not drawn)	13.7%
CCCC(=O)NC1C2CC3CC(C2)CC1C3 (stereo not drawn)	6.9%
Cc1cc(C(=O)CSc2nc3ccc(Cl)cc3[nH]2)c(C)n1C	?
O=C(Nc1ccccc1)C1=C(N2CCOCC2)/C(=C/c2cccnc2)CC1	?
CC(C)N(Cc1nc(-c2ccc(Cl)cc2)no1)C(=O)CN(C)S(=O)(=O)c1ccc(Cl)cc1	10.1%
CC(C)N1C(=O)c2ccc(C(=O)O)cc2C1=O	-2.3%
COCCNC(=O)C(c1ccc(Cl)cc1)N(C(=O)CCC(=O)Nc1ccccn1)C1CCCC1 (stereo not drawn)	6.0%
CCCOc1cc(C)c(S(=O)(=O)NCCOC)cc1C	-0.2%
CCCOc1ccc(NC(=O)C2CC(=O)N3CCCN=C3S2)cc1 (stereo not drawn)	31.6µM*
CCn1c(CSc2nncn2-c2ccc(OC)cc2)nc2cc(S(=O)(=O)N(C)C)ccc21	3.0%
Cc1ccccc1S(=O)(=O)Cc1ccc(C(=O)NCc2cccnc2)o1	-0.4%
O=C(c1csc2c1CCCCC2)N1CCN(c2ncccn2)CC1	-13.4%
Cc1ccc(NC(=O)CSc2nc3nc(C)cc(C)c3c(=O)[nH]2)cc1	-4.8%
Cc1nc(NC(=O)CSc2nc3cccnc3n2Cc2ccccc2)sc1C	-1.8%
COC(=O)c1ccc(Nc2nc(C)cc(=O)[nH]2)cc1	-26.3%
Cc1ccc(C(=O)C2=C(O)C(=O)N(Cc3ccccc3)C2c2cccnc2)o1 (stereo not drawn)	-3.3%
O=C(Nc1nc(-c2ccc(Cl)s2)cs1)c1ccncc1	?
COc1ccc(CCNS(=O)(=O)c2ccc3c(c2)CCN3C(=O)C2CC2)cc1OC	-6.0%
Cc1ccccc1NC(=O)CSc1nnc(-c2ccoc2C)n1CCc1ccccc1	?
O=C(c1cnccn1)N1CCC2(CC1)CCN(c1ccccc1)CC2	-0.5%
CCCNC(=O)Cn1cnc2sc(C(=O)NCCN(CC)CC)c(C)c2c1=O	3.0%
O=C(O)C1CCCCC1C(=O)Nc1ccc(Cl)cc1Cl (stereo not drawn)	9.8%
N#CC(C(=O)c1ccco1)c1ccccn1 (stereo not drawn)	5.9%
CCCC(=O)Nc1ccc(NC(=O)c2ccco2)c(OC)c1	-11.6%
O=C(Oc1cccc2c(O)cccc12)c1ccccc1	0.9%
Cn1nc(CC(=O)Nc2cccnc2N2CCOCC2)c2ccccc2c1=O	-1.7%
COc1cc2c(cc1OC)CN(C(=O)NS(=O)(=O)c1ccc(C)cc1)CC2	?
COc1ncnc2sc3c(c12)CCCC3	2.7%
Cc1cc(C(=O)NCCCN2CCOCC2)n(-c2ccccc2)n1	4.7%
Cc1ccccc1N(CC(N)=O)S(C)(=O)=O	-6.1%
CCC(=O)Nc1cccc(-c2nc3ccccc3c(=O)o2)c1	-7.7%
O=C(NC1CCCCC1)C1CN(S(=O)(=O)c2ccccc2)CCN1S(=O)(=O)c1ccccc1 (stereo not drawn)	-3.1%

Other compounds
SMILES	HSD17B inhib
Cc1cc(C)n2nc(CC(=O)NC3CCCC(C)C3C)nc2n1 (stereo not drawn)	1.7%
Clc1ccc(OCCN2CCN(c3ncnc4sccc34)CC2)cc1	12.2%
c1ccc(C2(Cn3ccc4ccccc43)OCCO2)cc1	0.4%
CCOC(=O)C(C)Sc1nnc(Cc2cc(=O)[nH]c(=O)[nH]2)n1-c1ccc(Cl)cc1 (stereo not drawn)	1.8%
Cn1cnc2cc(NC(=O)c3ccco3)ccc21	2.0%

Assay outcomes: PubChem BioAssay, National Center for Advancing Translational Sciences (NCATS)
